AID504770 = growth inhibition of E. coli YBA685, primary screen, V. cholerae RctB inhibitors | E. coli YBA685 rctB-dependent plasmid, OD600 growth, 3 h; stronger effect = lower value | z-score (concentration not given with the values) | actives 0.27% (n = 130,000);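 active = z-score under -2 on both plates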;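 also: wells of about 30 µL received 100 nL stock; score is relative to mean and SD of the test wells; the first replicate is given; strong numbers were not always called active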
Ba CapD inh = Bacillus anthracis CapD inhibitors, primary screen, biochemical, fluorescence intensity | AID 492967, 2010 | CapD gamma-glutamyltranspeptidase (Bacillus anthracis Ames Ancestor) | purified CapD enzyme, fluorescence intensity read-out; stronger effect = lower value; some hits fall short of the stated cut | z-score (test concentration not listed) | actives 0.23% (n = 140,000);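 active = z-score under -4 in either of two replicates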;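 also: stock transfer was 100 nL into about 40 µL; score is relative to mean and spread of the plate; one replicate is shown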
* marks the source's active call; other numbers are inactive results; nt = no result given.

entry | mol | AID504770 | Ba CapD inh
1 | Nc1noc2c1C(C1CC=CCC1)C1=C2CCCC1=O (centres undefined) | -0.55 | 1.61
2 | COc1ccc(Nc2nc(N3CCOCC3)nc(C)c2[N+](=O)[O-])cc1 | nt | -0.71
3 | COC(=O)c1ccc(-n2c(C)cc(C(=O)CC#N)c2C)cc1 | -0.7 | -0.71
4 | COc1cc(NC(=O)c2sc3nc(C)nc(N4CCC(C)CC4)c3c2C)cc(OC)c1OC | nt | -0.74
5 | C[C@H](NC(=O)c1ccco1)C(=O)Nc1ccc2oc3ccccc3c2c1 | -0.3 | nt
6 | O=c1[nH]cnc2c1nnn2Cc1ccccc1 | 0.7 | 0.4
7 | CNC(=O)NC(=O)CSc1ncnc2sc(-c3ccccc3)cc12 | -0.5 | 6.38
8 | CSc1ncc(C(=O)Nc2cccc(F)c2)cn1 | -1.15 | nt
9 | CN(C)c1ccc(/C=C/c2ccccc2)cc1 | 0.35 | 4.08
10 | O=C(O)CC(=O)Nc1ccccc1 | 0.1 | 0.275
11 | OCn1cnc2ccccc21 | -0.4 | -0.21
12 | Cn1cnnc1SCC(=O)Nc1ccc(Cl)cc1C(F)(F)F | 1 | -0.91
13 | CCC(C)/C(C)=N/Nc1ccc(Cl)cc1 (centres undefined) | -0.75 | nt
14 | COc1ccccc1Nc1c2c(nc3ccc(NC(=O)/C=C/c4cccs4)cc13)CCCC2 | nt | 1.02
15 | Cc1cc2nc(CSc3nc4sc5c(c4c(=O)n3C)CCCC5)cc(=O)n2o1 | 0.05 | 0.5
16 | O=C(c1ccc(F)cc1Cl)N1CCN(S(=O)(=O)c2cc(Br)ccc2Br)CC1 | nt | -0.97
17 | Cc1cc(C)c2c(n1)sc1c(N3CCOCC3)ncnc12 | -0.65 | 29.1
18 | N#Cc1c(N)n(Cc2ccc(Cl)cc2)c2nc3ccccc3nc12 | 0.35 | nt
19 | COc1ccc(-c2coc3cc(OC)cc(O)c3/c2=N\N)cc1 | 2 | nt
20 | CCOC(=O)c1c(C)n(C)c2cc(CN(C)C)c(O)c(S(=O)(=O)c3ccc(C)cc3)c12 | nt | 1.69
21 | N#Cc1ccc(SCCO)c([N+](=O)[O-])c1 | nt | 0
22 | CC1CCCN(C(=O)c2ccc(N3CC4CC(C3)c3cccc(=O)n3C4)c(NC(=O)Cc3c(F)cccc3Cl)c2)C1 (centres undefined) | nt | -0.155
23 | COc1ccc(/C=C2/SC(=S)N(CN3CCCCC3C)C2=O)cc1 (centres undefined) | nt | -1.65
24 | O=C(COC(=O)C1=COCCO1)NC1CCCCCCC1 | -0.6 | nt
25 | CCN(C(=O)[C@@H]1CCCN1C(=O)c1cccs1)c1nc2cc(Cl)ccc2s1 | -0.8 | nt
26 | CCC(=O)N(/C=C1\Sc2ccccc2C1=O)c1cccc(C)c1 | nt | -0.48
27 | O=[N+]([O-])c1ccc2oc(C(O)c3ccc(-c4ccccc4)cc3)cc2c1 (centres undefined) | nt | -0.425
28 | CCSc1nnc(NC(=O)Cc2n[nH]c(=O)c3ccccc23)s1 | -0.1 | nt
29 | O=c1c(C=NCc2ccco2)c(CSc2ccc(Cl)cc2)[nH]n1-c1nc2ccccc2s1 | 0.7 | -0.045
30 | O=C1C=CC[C@H]2[C@@H]3CCCN4CCC[C@H](CN12)[C@H]34 | -0.65 | 0.31
31 | O=C(Oc1cccc(C(F)(F)F)c1)c1cc2ccc3ccccc3c2s1 | -0.8 | 5.02
32 | O=C(C1CCN(c2ncnc3sccc23)CC1)N1CCCCCC1 | 0.3 | nt
33 | CCOC(=O)c1cc(NC(=O)N2CCCC2)c(C)nc1C | -0.85 | nt
34 | CN(C1CCN(Cc2c(F)cccc2Cl)C1)S(=O)(=O)c1ccccc1OC(F)(F)F (centres undefined) | nt | 0.495
35 | O=C1CCC(C(=O)Nc2ccccc2)N1 (centres undefined) | -0.75 | nt
36 | CCN1C(=O)/C(=C/c2ccco2)NC1=S | -0.25 | -0.025
37 | COc1ccc(C2CC(C(F)(F)F)n3nc(C(=O)NCc4ccc5c(c4)OCO5)cc3N2)cc1OC (centres undefined) | nt | 0.585
38 | Cc1cc(C(=O)COC(=O)c2ccc(NC(=O)CC#N)cc2)c(C)n1C1CC1 | 0.35 | nt
39 | O=C(O)CCCC(=O)Nc1cc(-c2ccccc2)[nH]n1 | 2.6 | 1.04
40 | O=C1c2ccccc2NC(c2cccs2)N1CCCN1CCOCC1 (centres undefined) | -0.75 | 111
41 | CC(=O)N1CCN(c2ccc(Oc3nnnn3-c3ccccc3)cc2)CC1 | -0.3 | nt
42 | O=C1CC(=O)N(/N=C2\C(=O)Nc3ccccc32)C(=S)C1 | -0.55 | -2.28
43 | COC(=O)c1cccnc1SC | 0.25 | -1.02
44 | CC(OC(=O)c1ccco1)C(=O)Nc1ccc(C(F)(F)F)cc1 (centres undefined) | 0.15 | nt
45 | N#Cc1c(N)nc(SCC(=O)Nc2cccc([N+](=O)[O-])c2)c(C#N)c1-c1cccs1 | nt | -0.21
46 | CCOC(=O)N1CCN(C2CCCc3c2[nH]c2ccc(C)cc32)CC1 (centres undefined) | -0.4 | -0.095
47 | COC(=O)c1sccc1S(=O)(=O)N1CCN(c2ncnc3c(C)csc23)CC1 | -0.45 | -0.08
48 | CCC(C)(C)c1ccc(S(=O)(=O)NCCOC)cc1 | nt | 0.045
49 | COc1ccc(C(=O)COC(=O)CCc2nc3ccccc3[nH]c2=O)cc1Br | 0.85 | 4.37
50 | O=C1c2ccccc2C(=O)c2c1ncn2Cc1ccccc1 | 0.1 | 0.435
51 | CCCN1C(=O)CSC1=Nc1ccccc1 | -1.45 | nt
52 | COc1ccc(NC(=O)C2=C(C)C(=O)OC23CCN(S(C)(=O)=O)CC3)c(OC)c1 | -0.05 | 0.98
53 | C=CCn1c(-c2ccc(Cl)cc2)cnc1SC(C)C(N)=O (centres undefined) | -0.7 | nt
54 | NCCC(=O)OCC1CCCN2CCCCC12 (centres undefined) | 0.15 | -0.03
55 | CCN1C(=O)CSC1=Nc1cccc(C(=O)O)c1 | -0.4 | -0.815
56 | COc1ccc(NS(=O)(=O)c2cccc(C(=O)N/N=C(\C)c3ccco3)c2)cc1 | 0.05 | nt
57 | COC(=O)c1ccccc1N(C)C(=O)c1cccc(S(=O)(=O)N2CCCCC2)c1 | -0.75 | 0.48
58 | CN(C)S(=O)(=O)c1cccc(C(=O)N2CCN(C(=O)C3CCCO3)CC2)c1 (centres undefined) | -0.55 | nt
59 | O=c1c2ccccc2[nH]c(=S)n1CCCN1CCN(c2ccccc2)CC1 | 1.35 | -0.32
60 | COc1ccc(Nc2nc(Nc3ccc(OC)cc3)nc(N3CCNCC3)n2)cc1 | nt | -0.47

Going on with the list:
entry | mol | AID504770 | Ba CapD inh
61 | Cc1ccc(C(=O)CCC(=O)N2CCN(C/C=C/c3ccccc3)CC2)cc1 | -0.3 | nt
62 | Cc1cccc(-c2cc3nc(C)c(C)c(N4CCC5(CC4)OCCO5)n3n2)c1 | 0.75 | nt
63 | COc1cccc(N2CCN(CC(=O)c3c(N)n(C)c(=O)n(C)c3=O)CC2)c1 | 0 | nt
64 | O=C(OCCN=C1NS(=O)(=O)c2ccccc21)C1CC(=O)N(c2ccc3ccccc3c2)C1 (centres undefined) | nt | -1.16
65 | O=C(On1c(-c2ccc(Br)cc2)nc2ccccc2c1=O)c1ccc(F)cc1 | nt | -0.82
66 | O=C1c2ccccc2-c2nnc(-c3ccc(Oc4ccccc4)cc3)cc21 | nt | -0.34
67 | CCc1cccc(NC(=O)C2c3ccccc3Oc3ccccc32)c1 | -1.75 | -0.04
68 | O=C(NCc1ccccc1)c1ccc(CS(=O)c2ccccc2)o1 (centres undefined) | -0.15 | 44.4
69 | O=[N+]([O-])c1cc(C(F)(F)F)ccc1Oc1c(Cl)cccc1Cl | nt | 0.505
70 | COC(=O)c1ccc(C2C(Oc3ccccc3)C(=O)N2CCc2ccc(OC)c(OC)c2)cc1 (centres undefined) | 0.45 | 0.52
71 | Cn1cnnc1SCc1ccc(C(=O)N/N=C/c2cccs2)cc1 | -0.15 | nt
72 | N#CCCn1c2ccccc2c2ccccc21 | nt | 13.9
73 | CC1CCN(C(=O)COC(=O)c2ccc(OC(F)(F)F)cc2)CC1 | -0.75 | -0.275
74 | O=C(NCCC1=CCCCC1)C1COc2ccccc2O1 (centres undefined) | -0.5 | 0.3
75 | C/C(N)=C(/C#N)C(=O)CSc1cccc[n+]1[O-] | -0.55 | nt
76 | CCOC(=O)N1CCN(C(=O)CN(c2cc(C(F)(F)F)ccc2Cl)S(C)(=O)=O)CC1 | -1.15 | -0.035
77 | CC1(C)CC2CC(C)(CN2C(=O)COC(=O)c2ccccc2)C1 (centres undefined) | 1.1 | -0.095
78 | CSc1c(-c2ccccn2)c(N)nn1C(=O)C1CC1 | -0.75 | -1.49
79 | O=c1[nH]c2ccccc2c(O)c1-c1ccccc1 | nt | 0.17
80 | CC(Nc1ccc(-n2cnnn2)cc1)C(=O)Nc1ccc2c(c1)OCCO2 (centres undefined) | 0.9 | nt

Complete entries as entered above. Screens in order: AID504770	Ba CapD inh
O=[N+]([O-])c1cc(C(F)(F)F)ccc1Oc1c(Cl)cccc1Cl in the list: nt	0.505
Cc1ccc(C(=O)CCC(=O)N2CCN(C/C=C/c3ccccc3)CC2)cc1 in the list: -0.3	nt
O=c1[nH]c2ccccc2c(O)c1-c1ccccc1 in the list: nt	0.17

Further results
entry | mol | AID504770 | Ba CapD inh
81 | Cc1ccc(C2OC3(C(=O)c4ccccc4C3=O)C3C(=O)N(c4cc(Cl)ccc4Cl)C(=O)C23)cc1 (centres undefined) | nt | -0.32
82 | c1ccc(-c2csc3ncnc(NCCN4CCOCC4)c23)cc1 | 1.9 | -0.37
83 | Clc1ccc(-c2noc(-c3cn[nH]c3-c3ccccc3)n2)cc1 | nt | 0.455
84 | CC(NC1CCCCCCC1)C(=O)Nc1ccc(S(N)(=O)=O)cc1 (centres undefined) | -0.35 | nt
85 | CC(C)NS(=O)(=O)c1ccc(Oc2ncc(C(F)(F)F)cc2Cl)cc1 | nt | -0.255
86 | CCC(C)NC(=O)CSc1nc2ccsc2c(=O)n1Cc1ccc(OC)cc1 (centres undefined) | -0.1 | -0.16
87 | COC(=O)c1sccc1N/N=C(\C#N)S(=O)(=O)c1ccc(Cl)cc1 | nt | 0.6
88 | CCOC(=O)NC(=S)c1ccc(OC)cc1 | -0.6 | -2.21
89 | Cc1ccc(CSCc2ccc(C(=O)NC3CCCC3)o2)cc1 | -0.5 | -0.57
90 | N#CC(c1ccccc1)c1ccccn1 (centres undefined) | -0.7 | 1.15
91 | CC[C@@]1(O)C[C@H](O)c2c(cc3c(c2O)C(=O)c2c(O)ccc(O)c2C3=O)[C@H]1C(=O)OC | -0.05 | nt
92 | O=c1nc(N2CCCCC2)ccn1-c1nc(-c2ccccc2)oc1-c1ccccc1 | -1.05 | nt
93 | CC(=O)Nc1ccc(NS(=O)(=O)c2cccc3nonc23)cc1 | nt | -0.88
94 | CCN(CC)C(=O)C1=C(C)Nc2nc3ccccc3n2C1c1cc(Br)ccc1OC (centres undefined) | -1.25 | -0.68
95 | O=c1[nH]c(CSc2ncnc3sccc23)nc2sc3c(c12)CCCC3 | -0.65 | nt
96 | O=C(NCc1cccs1)c1ccccc1NC(=O)C(F)(F)F | 0.3 | 10
97 | Cc1ccc(OCC(O)CN2C(=O)NC(C)(C)C2=O)c(Cl)c1 (centres undefined) | -1.7 | nt
98 | COc1ccc(C2C(C#N)=C(N)Oc3n[nH]c(C)c32)cc1CSc1nc2ccccc2o1 (centres undefined) | nt | 0.23
99 | O=C1CCCC(O)=C1C=Nc1cccc(Cl)c1Cl | -2.8 | -0.08
100 | O=C(O)c1cccc(Nc2nc3ccccc3n3cnnc23)c1 | 4.25 | -2.5

Reformatted with values under each structure: entries from further up
Second line of a record: AID504770	Ba CapD inh
#97 Cc1ccc(OCC(O)CN2C(=O)NC(C)(C)C2=O)c(Cl)c1 (centres undefined)
    -1.7	nt
#98 COc1ccc(C2C(C#N)=C(N)Oc3n[nH]c(C)c32)cc1CSc1nc2ccccc2o1 (centres undefined)
    nt	0.23
#99 O=C1CCCC(O)=C1C=Nc1cccc(Cl)c1Cl
    -2.8	-0.08

(next part)
entry | mol | AID504770 | Ba CapD inh
101 | N#CC(C(N)=O)C(=S)Nc1ccccc1 (centres undefined) | 0.45 | nt
102 | c1ccc(C2N3CCCN2CC3)cc1 (centres undefined) | -1.15 | 0.22
103 | COc1ccc(OC)c(-c2cc(C(N)=O)on2)c1 | -0.2 | -0.045
104 | O=C1c2ccccc2C2=Nc3ccccc3SC12O (centres undefined) | 0.85 | -0.155
105 | OC(CN1CCCCC1)Cn1c2ccc(I)cc2c2cc(I)ccc21 (centres undefined) | nt | -0.105
106 | Cn1c(-c2ccccc2)c(/C=C2/C(=O)Oc3ccccc3C2=O)c2ccccc21 | -0.05 | -0.15
107 | O=C(OCc1nnc(-c2ccccc2)o1)C1c2ccccc2Oc2ccccc21 | -0.1 | -0.085
108 | N#CC(C#N)=C1c2ccccc2-c2c1nc1ccccc1[n+]2[O-] | -0.1 | nt
109 | N#Cc1ccc(OC(=O)Cn2c(C(F)(F)F)nc3ccccc32)cc1 | -0.7 | -0.24
110 | O=c1cc(-c2ccccc2)nc2c(n1)NON2 | 1.1 | -0.01
111 | COc1ccc(C2C(C(=O)N3CCCCC3)c3ccccc3C(=O)N2Cc2ccc(F)cc2)cc1 (centres undefined) | nt | -0.125
112 | O=C1CC(=O)SC(c2ccccc2)=N1 | -1.4 | nt
113 | CNc1ccc2ccccc2c1 | -1.65 | nt
114 | CC(NC(=O)CC12CC3CC(CC(C3)C1)C2)C(=O)O (centres undefined) | 1.55 | 11.8
115 | COc1ccc(C)cc1C(=O)CCC(=O)O | -0.5 | nt
116 | O=C(COc1ccc2oc3c(c2c1)CCCC3)NCCNc1ncc(C(F)(F)F)cc1Cl | 0.05 | nt
117 | CCCNC(=O)NC1CCN(c2ncc(C(F)(F)F)cc2Cl)CC1 | -0.45 | 0.075

Screens as filed in PubChem BioAssay.

The list is partial; count on the stated rates, not on these rows.
